gsp antag: qHTS for Antagonists of gsp, the Etiologic Mutation Responsible for Fibrous Dysplasia/McCune-Albright Syndrome: qHTS; Potency, µM (series often up to 76.9 µM), for the others: at the highest dose activity change, negative = inhibition, usual class: inhibitors; AID 624288, 2012; gsp-mutant cells, cAMP HTRF, 30 min; control for the full effect not named in the record; 0.4% of 340,000 active; active = falling curve of any shape with a large fitted effect; inconclusive = falling curve, mostly with a smaller effect; inactive = flat or rising curve; cell line not stated here;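 also: intracellular cAMP measured with PDE inhibitor Ro 20-1724 present during compound exposure; potency is read from the fitted curve at half-maximal effect; % is scaled to controls: 0 for no effect and ±100 for the full control effect; nearly all actives have a fitted effect of over 65% in size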
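Measurement of cellular cAMP by homogeneous time-resolved fluorescence following a 30 min compound exposure at 37C. The PDE inhibitor […] was present throughout; the assay buffer was DPBS with 0.05% BSA and 0.005% Tween 20.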
Sfp inh: qHTS Assay for Inhibitors of Bacillus subtilis Sfp phosphopantetheinyl transferase (PPTase) | Biochemical Sfp PPTase activity, qHTS | Potency, µM, inactives show max response, negative = inhibition, usual class: inhibitors | 4'-phosphopantetheinyl transferase ffp (Bacillus subtilis), Q9F4F7 | 3.5% of 310,000 active; active = well fitted inhibition curve with a large enough effect; inconclusive = small, poorly fitted or top-dose-only effect, or another doubt; inactive = no such curve, though single readings can be large or run the other way;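 also: the enzyme is Sfp with the accession as filed and its product quenches rhodamine fluorescence; potency is read from the fitted curve at half-maximal effect; 0% = enzyme reaction without inhibitor and -100% = no enzyme wells; top concentration of the series not given in the record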
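Buffer: 50 mM Hepes-Na pH 7.6, 10 mM MgCl2, 0.01% Nonidet P-40, 0.01% BSA. Enzyme 15 nM, pre-exposed to compound 15 min; substrates then added and fluorescence change tracked over 30 min.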
TRPV1 potentiator: HTS Assay for Compounds that Act as Potentiators of the Vanilloid Receptor 1; AID 540277, 2011; potentiation, % at 8.33 µM; 0.02% of 320,000 active; TRPV1-expressing cells, Fluo-8 calcium influx, capsaicin EC20 potentiation; host cell line not named in the record; control for the full effect not named in the record; active means potentiation above 80%; inconclusive means 30% to 80%; inactive means below 30%; also: 0% is about no effect
Target sequence (Q8NER1 whole entry, looked up): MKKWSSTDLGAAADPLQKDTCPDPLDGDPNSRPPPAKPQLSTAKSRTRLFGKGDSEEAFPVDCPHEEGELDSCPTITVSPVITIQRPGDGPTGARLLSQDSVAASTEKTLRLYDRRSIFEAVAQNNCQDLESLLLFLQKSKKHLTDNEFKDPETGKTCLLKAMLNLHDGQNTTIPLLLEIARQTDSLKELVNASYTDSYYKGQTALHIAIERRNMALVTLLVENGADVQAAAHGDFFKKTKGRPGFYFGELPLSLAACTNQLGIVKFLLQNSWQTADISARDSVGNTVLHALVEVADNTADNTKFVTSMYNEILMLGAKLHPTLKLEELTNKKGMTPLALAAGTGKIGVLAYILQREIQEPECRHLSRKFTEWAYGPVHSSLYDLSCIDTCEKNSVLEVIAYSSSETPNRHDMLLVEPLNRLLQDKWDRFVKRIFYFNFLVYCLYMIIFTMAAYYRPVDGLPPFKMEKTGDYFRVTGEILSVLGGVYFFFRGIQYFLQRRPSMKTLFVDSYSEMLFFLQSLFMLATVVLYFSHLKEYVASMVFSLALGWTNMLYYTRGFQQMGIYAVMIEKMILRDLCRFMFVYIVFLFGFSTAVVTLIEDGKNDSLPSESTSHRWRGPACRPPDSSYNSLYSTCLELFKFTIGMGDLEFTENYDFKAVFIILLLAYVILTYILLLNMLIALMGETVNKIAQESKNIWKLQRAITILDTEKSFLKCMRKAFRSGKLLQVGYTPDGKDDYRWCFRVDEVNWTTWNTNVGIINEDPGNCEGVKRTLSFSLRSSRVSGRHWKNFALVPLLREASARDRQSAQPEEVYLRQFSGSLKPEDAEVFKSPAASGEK
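Fluo-8 calcium influx in TRPV1-expressing cells, kinetic read (ex 480/em 520 nm). Compound added and read 3 min for agonist activity, followed by capsaicin at EC20 final and 2 min further read for enhancement.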
CtBP-E1A inh: qHTS Assay for Inhibitors of the CtBP/E1A Interaction; CtBP / adenovirus E1A interaction (AlphaScreen); AlphaScreen GST-E1A/His-CtBP binding, 1536-well; stronger effect = lower value; control for the full effect not named in the record; activity change, % (concentration not given with the values); 0.49% of 340,000 active; in the data active means activity change below about -65%; inconclusive means about -30% to -65%; inactive means above about -30%; also: % is scaled to controls: 0 for no effect and ±100 for the full control effect
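Steps: dispense buffer (Tris pH 8.0, NaCl 300 mM, TCEP 1 mM, BSA, Tween 20); add 5X protein mix (GST-E1A, His-CtBP, 125 nM each); pin 23 nL compound; 2 h at 37 °C, dark; add 5X beads (50 ug/mL); 1 h; read.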
Menin MLL FP FL: qHTS Assay for Inhibitors Targeting the Menin-MLL Interaction in MLL Related Leukemias: Competition With Fluorescein Labeled MLL-derived Peptide | Fluorescence polarization, fluorescein-MLL peptide displacement from menin | FP activity change, % at 61.4 µM | 290,000 tested, under 10 active; inconclusive = falling polarisation curve, or a change in total fluorescence; inactive = total fluorescence flat and polarisation flat or rising; no compound was filed as active; the % refers to the polarisation; negative = inhibition;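 also: % of control where 0% means no effect; inhibitors lower the polarisation; unlabelled MLL peptide was the positive control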
gsp ag: qHTS for Agonist of gsp, the Etiologic Mutation Responsible for Fibrous Dysplasia/McCune-Albright Syndrome: qHTS; gsp mutant cells, cAMP HTRF, 30 min; control for the full effect not named in the record; Potency, µM (titrated, usually from 76.9 µM), inactives show at the top dose activation (cAMP increase), usual class: activators; 0.13% of 340,000 active; AID 624287, 2012; active = well fitted activation curve with a large enough effect; inconclusive = small, poorly fitted or top-dose-only effect, or another doubt; inactive = no such curve, though single readings can be large or run the other way; cell line not stated here;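 also: phosphodiesterase inhibitor Ro 20-1724 added with compounds to block cAMP breakdown; potency is read from the fitted curve at half-maximal effect; nearly all actives have a fitted effect of over 60% in size; about a fifth of the inactives were tested at one dose only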
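Cells stably selected in G418 were plated at 2000/well, grown 16-24 hr, then given compounds in DMSO with the PDE inhibitor […] (300 uM solution added) for 30 min at 37C; cAMP was read by HTRF.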
ClpP mod: qHTS Assay for Activators of ClpP | AID 651965, 2013 | Potency, µM (top dose mostly 57.5 µM), without a hit: at the top dose activity change, negative = active | purified B. subtilis ClpP, FRET peptide cleavage, 20 min | 1.9% of 340,000 active; active = well fitted falling curve with a large enough effect; inconclusive = small, poorly fitted or top-dose-only effect; inactive = no such curve, though single readings can be large or run the other way; also: potency is read from the fitted curve at half-maximal effect; the source files actives as falling curves though it sought activators and does not explain the sign; nearly all actives have a fitted effect of over 65% in size; many hits overshoot -100%
Target sequence (P80244 whole entry, looked up): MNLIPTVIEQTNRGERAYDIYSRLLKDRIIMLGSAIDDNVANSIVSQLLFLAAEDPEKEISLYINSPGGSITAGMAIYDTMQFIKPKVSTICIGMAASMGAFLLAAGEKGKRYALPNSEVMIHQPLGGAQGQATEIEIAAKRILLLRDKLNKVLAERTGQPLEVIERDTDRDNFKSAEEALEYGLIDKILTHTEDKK
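Purified B. subtilis ClpP, 10 microg/mL final in Tris/HCl pH8 with KCl, BSA, glycerol and Tween-20, cleaved an Abz/nitrotyrosine-quenched decapeptide. Fluorescence (ex 320, em 430) was read at 0 and 20 min at room temperature. Delta was normalized to 5.8 microM ADEP and DMSO/no-enzyme controls.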
The depositor's hits bear a star; ? = inconclusive; . = no result given; & = joins results of further samples; [ ] = remark or other dose. The order is random (roughly 5.3% active in at least one column).

entry	compound	ClpP mod	gsp antag	CtBP-E1A inh	gsp ag	Sfp inh	Menin MLL FP FL	TRPV1 potentiator
1	Cc1cccc(-n2c(=O)c3c(C)c(C)sc3n(CC(N)=O)c2=O)c1	.	9%	2	11%	-11%	4.7	-10
2	CCOC(=O)C1=NOC(COc2ccccc2C=O)C1 (stereo not drawn)	.	0%	-4	-3%[15.4 µM]	24%	1.7	?
3	COc1ccc(C(=O)NCCS(=O)(=O)N(C)C2CCCCC2)cc1	-1.0%	5%	-13	-44%[inhibitor]	.	.	0
4	Cc1ccc(C)c2c(N)c3c(nc12)CCCCC3 (tested in a mixture with another compound)	-6.6%	-8%	-24	-2%[15.4 µM]	-1%	-0.7	0
5	CCCN(CCC)c1ccc(/C=C/c2ccc3cc(OCC)ccc3n2)cc1	11%	16%	11	?	-25%	?	16
6	Cc1sc(N/N=C/c2ccco2)nc1-c1ccccc1	-2.5%	-11%	.	-2%	-4%	1.6	-5
7	CCc1ccc(OCC(=O)Oc2ccc([N+](=O)[O-])cc2)cc1	-2.6%	2%	-13	-29%	-5%	-2.9	-2
8	COc1ccc(CNC(=O)C(=O)NC2CC(C)(C)NC(C)(C)C2)cc1	.	.	-4	-1%[15.4 µM]	0%	-2.6	-1
9	COc1cc(/C=C(\NC(=O)c2ccccc2)C(=O)Nc2cccc(O)c2)c([N+](=O)[O-])cc1OC	-9.9%	-8%	2	-11%	18%	-23	-9
10	CN1CCN(c2nc(C(N)=O)cc(-c3ccccc3)n2)CC1	-10%	4%	-1	-28%	-6%	-3.8	20
11	COc1ccccc1CC(=O)Nc1cccc2ccccc12	0.0%	-1%	5	3%[15.4 µM]	-3%	-0.6	16
12	c1cc(CNc2ccc(N3CCOCC3)cc2)ccn1	32µM*	-31%	-5	6%	50µM*	2.9	5
13	CCC(=O)Nc1nc(-c2ccc3c(c2)CC(C)N3S(C)(=O)=O)cs1 (stereo not drawn)	.	-10%	-3	4%	21%	-0.1	1
14	CCOc1ccc(-c2noc(CCC(=O)NCCc3ccccc3)n2)cc1OC	0.1%	-24%	-65*	10%[15.4 µM]	5%	0.2	-3
15	COc1ccc2nc(NC(=O)CCN3C(=S)NC(C)(C)CC3C)sc2c1 (stereo not drawn)	-1.3%	6%	6	-11%	16%	2.7	-8
16	Cc1cc(C)c(CN2CCC(n3nccc3NC(=O)C3CCOC3)CC2)cc1C (stereo not drawn)	-0.1%	13%	0	-37%	11%	.	-12
17	CSc1ccc(CN2CCN(CCC(C)C)C(CCO)C2)cc1 (stereo not drawn)	1.8%	4%	0	26%	3%	3.9	-5
18	Cn1c(=O)c(=O)n(C)c2cc(S(=O)(=O)N3CCCC3C(=O)Nc3ccccc3F)ccc21 (stereo not drawn)	?	-9%	3	-9%	11%	-3.8	-13
19	CCn1c2ccccc2c2cc(NC(=O)c3cccc([N+](=O)[O-])c3)ccc21	.	-5%	-23	-7%[15.4 µM]	6%	2.3	11
20	Cc1cc(C)c(C#N)c(N)n1	4.3%	3%	-17	2%	19%	0.9	-1
21	COCc1c(C(=O)N/N=C(\C)c2ccc(Cl)s2)nnn1-c1nonc1N	-13%	10%	1	5%	14%	-3.0	17
22	C[C@H](CO)N1C[C@H](C)[C@@H](CN(C)Cc2ccc(-c3ccccc3)cc2)Oc2c(NS(=O)(=O)c3ccccc3)cccc2C1=O	-6.7%	?	-3	-1%	.	.	.
23	Cc1ccccc1OCc1nnc(SCC(=O)Nc2ccc3c(c2)oc2ccccc23)n1C	14µM*	3%	4	-8%	12%	-2.0	-43
24	O=C(Nc1ccc(F)cc1)Nc1cccc(Br)c1	0.4%	-23%	.	-2%	.	.	.
25	CCOC(=O)C1=C(C)NC(=O)NC1c1ccc(-c2ccc(Cl)cc2)o1 (stereo not drawn)	-4.0%	-10%	0	-1%[15.4 µM]	8%	17	9
26	CCOC(=O)c1sc(NC(=O)Nc2ccccc2)cc1C	-16%	-4%	13	28%	35µM*	2.7	2
27	Cc1noc(C)c1S(=O)(=O)N1CCN(c2ccc(Cl)cc2)CC1	-1.0%	-2%	9	0%	10%	0.4	12
28	O=C(CCn1c(=S)oc2ccccc21)Nc1ccccc1F	.	-1%	4	19%[15.4 µM]	9%	2.5	-1
29	COc1ccc(/C(C)=N\NC(=O)c2ccc(-c3ccccc3)cc2)c(F)c1	-5.5%	1%	-3	-40%[inhibitor]	13%	-4.2	-14
30	CCC(C)(C)NC(=O)CN(Cc1ccccc1)C(=O)CCC(=O)Nc1nccs1	.	5%	-20	1%[15.4 µM]	12%	4.8	10
31	COc1ccc(-n2nnnc2SCC(=O)Nc2cc(OC)c([N+](=O)[O-])cc2C)cc1	0.7%	-8%	6	-12%	-18%	-4.8	-7
32	CCN(C[C@H]1N[C@@](C)(C(=O)OC)[C@H]2C(=O)N(Cc3ccccc3)C(=O)[C@@H]12)S(=O)(=O)c1ccccc1	1.0%	5%	2	.	.	.	.
33	CCOC(=O)Cn1nnnc1C(CC)N(Cc1cccs1)Cc1cc2cc(C)ccc2[nH]c1=O (stereo not drawn)	-3.8%	?	2	12%	5%	-1.3	.
34	Cc1cccc(C)c1OCC(=O)N1CC2(C)CC1CC(C)(C)C2 (stereo not drawn)	-1.0%	-14%	2	-6%	-18%	2.9	-22
35	COc1ccc(OC)c(N2CC(O)=C(c3nc4ccccc4s3)C2=N)c1	-4.9%	-2%	-6	-17%	-5%	8.4	8
36	Cc1[nH]n(-c2ccccc2)c(=O)c1N=Nc1ccc(F)cc1	0.8%	-2%	-26	27%	6%	-8.9	0
37	Cc1ccc(C)c(S(=O)(=O)c2c[nH]c(=S)[nH]c2=O)c1	-1.1%	0%	.	0%	-12%	.	4
38	CC1CCN=C(N)S1 (stereo not drawn)	0.3%	0%	7	.	.	4.9	.
39	O=C(CNS(=O)(=O)c1c(F)cc(F)cc1Br)OCC(=O)N1CCCC1=O	1.3%	-16%	-3	-1%[15.4 µM]	.	.	-1
40	CC(C)CC1(C(=O)NCCc2c[nH]c3ccccc23)C=CCN1C(=O)c1ccccc1 (stereo not drawn)	1.2%	-11%	0	40%	1%&16%	0.8&-0.7	-5
41	Cc1cccc(C)c1NC(=O)CCCSc1nnc(-c2ccco2)n1-c1ccccc1	0.6%	-6%	-1	-16%	-17%	3.3	7
42	COc1ccccc1NC(=S)NCc1ccc(Cl)cc1	-0.5%	-2%	?	1%[15.4 µM]	9%	3.4	2
43	CC(C)(C)c1ccc(-c2csc(NNC3=NCCCCC3)n2)cc1	-5.9%	15%	-6	-40%[inhibitor]	50µM*	-1.8	-8
44	FC(F)(F)c1nc(-c2cccs2)ncc1-c1nnnn1-c1ccc(Cl)cc1	35µM*	?	1	2%	-3%	2.6	-21
45	COc1ccccc1C(=O)COC(=O)Cn1nc(C)c([N+](=O)[O-])c1C	1.2%	3%	5	30%	.	.	-7
46	COC(=O)C(C)(C)ONC(=O)Nc1ccc(C)cc1	-7.8%	-9%	15	23%[15.4 µM]	10%	2.1	-12
47	Cc1cc(C(=O)C(C)OC(=O)c2ccc(NC(=O)CC#N)cc2)c(C)n1-c1ccccc1 (stereo not drawn)	.	?	-11	-1%[15.4 µM]	.	.	3
48	NC(N)=NS(=O)(=O)c1ccc(NC(=S)NC(=O)/C=C/c2ccco2)cc1	1.6%	?	-3	?	5%	17	0
49	O=C1CC(c2ccccc2)CC(O)=C1C=NCCN1CCN(C(=S)Nc2cccc(Cl)c2)CC1 (stereo not drawn)	0.9%	-22%	-9	-26%	17%	2.5	3
50	Fc1ccc(-c2nnc(-n3nnc4ccccc43)c3ccccc23)cc1	0.8%	-6%	-7	-17%	.	.	.

Remaining list, next part.
entry	compound	ClpP mod	gsp antag	CtBP-E1A inh	gsp ag	Sfp inh	Menin MLL FP FL	TRPV1 potentiator
51	Cc1onc(-c2ccccc2Cl)c1C(=O)Nc1nnc(-c2cccc([N+](=O)[O-])c2)s1	0.5%	?	2	?	-5%	-4.2	?
52	CC(=O)N/C(=C\c1ccccc1)C(=O)OC/C=C/c1ccccc1	0.5%	5%	4	25%	6%	.	7
53	COc1ccc(NC(=O)C2CC(c3ccc(Cl)cc3)=NO2)cc1 (stereo not drawn)	.	0%	3	4%	6%	-6.6	-16
54	Cc1nnc(SCc2cc([N+](=O)[O-])cc3c2OCOC3)[nH]c1=O	0.0%	-19%	5	11%	10%	5.9	-18
55	CSc1nsc(SCC(=O)Nc2cccc(C(C)=O)c2)n1	1.5%	-2%	1	0%	2%	1.2	-13
56	N#C/C(=C/c1ccc(-c2cc([N+](=O)[O-])ccc2Cl)o1)C(N)=O	2.0%	-15%	.	-21%	-19%	4.7	-3
57	CCOC(=O)c1cc(NC(=O)N2CCOCC2)c(C)nc1C	0.3%	5%	5	-16%	23%	0.8	-16
58	c1coc(CNc2nc3nonc3nc2NCc2ccco2)c1	-8.5%&2.1%	-18%	-7	20%	22µM*	?	-4
59	CC(C)n1cc(/C=N\NC(=O)c2cc3c(ccc4ccccc43)o2)c2ccccc21	1.2%	-4%	0	-39%[inhibitor]	-2%	0.0	-4
60	COCCn1c(SCC(=O)NC(=O)NC2CCCC2)nc2ccccc2c1=O	0.5%	?	0	12%	.	.	-2
61	Cc1ccc(-c2nnc(SCC#N)n2N)cc1	4.5%	6%	-3	-21%	3%	3.2	3
62	Cc1ccc(C(=O)CC(Nc2ccc(F)cc2)c2ccccc2)cc1 (stereo not drawn)	3.2%	-11%	-1	-15%[15.4 µM]	16%	4.8	11
63	Cc1ccc(NC(=O)/C(=C\c2cccnc2)NC(=O)c2ccccc2)cc1	-1.2%	0%	-6	15%[15.4 µM]	2%	-4.4	4

Bioassay records deposited in PubChem BioAssay by National Center for Advancing Translational Sciences (NCATS).
